KCNQ2 pot: enhances the rat KCNQ2 potassium channel; O88943; B-score at 10 µM; 310,000 compounds, 0.54% hits; CHO-K1 KCNQ2, FluxOR thallium flux fluorescence; hits give high values;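 active means fluorescence ratio B-score at least 3 SD of library B-scores, with initial fluorescence B-score within 3 SD, cut at about 5.3 in these data; same plate scores as AID 2156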;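 further: B-score of peak minus minimum over baseline fluorescence ratio after K+ and Tl+ stimulus; positive B-score means potentiation of KCNQ2 with more thallium influx and brighter signal; only the inactives scoring about 0 or higher are listed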
Target sequence (O88943 whole entry, looked up): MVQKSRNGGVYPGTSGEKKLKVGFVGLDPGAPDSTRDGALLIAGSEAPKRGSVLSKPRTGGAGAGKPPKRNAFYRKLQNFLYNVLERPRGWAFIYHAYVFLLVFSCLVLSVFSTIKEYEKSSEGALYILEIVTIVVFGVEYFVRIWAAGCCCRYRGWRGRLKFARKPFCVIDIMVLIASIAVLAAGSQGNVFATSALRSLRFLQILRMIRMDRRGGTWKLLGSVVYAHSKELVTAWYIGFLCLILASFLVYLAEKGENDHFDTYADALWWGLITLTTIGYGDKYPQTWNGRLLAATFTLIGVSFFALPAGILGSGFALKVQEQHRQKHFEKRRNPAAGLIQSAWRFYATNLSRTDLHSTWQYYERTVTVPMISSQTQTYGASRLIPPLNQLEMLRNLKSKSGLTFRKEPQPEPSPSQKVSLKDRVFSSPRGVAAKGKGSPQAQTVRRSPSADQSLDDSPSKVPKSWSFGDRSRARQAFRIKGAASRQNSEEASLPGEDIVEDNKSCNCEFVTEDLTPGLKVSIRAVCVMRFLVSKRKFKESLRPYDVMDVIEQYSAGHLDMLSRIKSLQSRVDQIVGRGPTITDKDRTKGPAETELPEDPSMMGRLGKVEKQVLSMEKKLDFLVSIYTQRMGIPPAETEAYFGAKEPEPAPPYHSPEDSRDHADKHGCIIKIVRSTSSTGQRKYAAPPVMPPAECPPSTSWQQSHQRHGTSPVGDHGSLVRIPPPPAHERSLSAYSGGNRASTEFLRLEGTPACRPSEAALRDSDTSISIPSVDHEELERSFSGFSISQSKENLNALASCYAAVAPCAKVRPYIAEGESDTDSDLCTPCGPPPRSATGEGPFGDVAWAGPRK
KCNQ2 pot baseline: second read-out of KCNQ2 pot, no call of its own (marks repeat the call); B-score; compound at 10 µM; measured here: initial fluorescence intensity artifact check;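 brightness before thallium and not channel activity; 0 = typical well and far values either way flag optical interference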
* hit, by the source's call. A portion of the library; rates above refer to the full screens.

mol	KCNQ2 pot	KCNQ2 pot baseline
COc1ccc(Nc2cc(=O)n(-c3ccccc3)c3c2c(=O)n(C)c(=O)n3C)cc1	0.26	-2.6
CCOc1ccc(-c2nnc(NC(=O)Cc3ccc(OC)cc3)o2)cc1	1.2	1.2
O=C(Nc1ccc(Br)c(Cl)c1)c1ccco1	2.4	1.1
CCOc1ccc(NC(=O)C(=O)N/N=C\c2ccc(CNS(=O)(=O)c3ccccc3)o2)cc1	0.26	-0.25
Cc1ccc(-c2nc(N)s[n+]2-c2ccccc2)cc1	1.7	-0.94
O=C(CSc1nnc(-c2cccnc2)s1)Nc1ccc(C(=O)O)cc1	0.08	-0.13
O=C(NCC(=O)N1CCOCC1)OCc1ccccc1	1.3	-1.6
Cc1nc2c(cc1C(=O)N/N=C/c1ccc([N+](=O)[O-])cc1)c(=O)n(C)c(=O)n2C	0.45	0.14
CN(C)CCN(Cc1ccco1)S(=O)(=O)c1ccc(-c2ccc(=O)[nH]n2)s1	1.5	1.6
COc1ccc2oc(=N)c(-c3nnc4n3CCCCC4)cc2c1	0.1	-1.9
CCOc1ccc(C(=O)OCn2nnc3ccccc3c2=O)cc1OC	0.74	0.16
CCc1ccc(OCCCOc2ccc(C=O)cc2)cc1	0.12	-0.01
CC1CN(Cc2ccccn2)CCC1=O (stereo not drawn)	1.4	-0.4
CCCCn1c(-c2ccoc2C)n[nH]c1=S	0.29	1.8
CCOC(=O)N1CCN(C(=O)c2sc3nc(-c4ccc(F)cc4)cn3c2C)CC1	0.01	0.41
CC1=C(C#N)C(c2cccnc2)C2=C(CC(c3ccc(Cl)cc3)CC2=O)N1 (stereo not drawn)	0.22	0.55
COc1ccc(OCc2nnc(SCC(N)=O)n2-c2ccccc2OC)cc1	2	-0.96
CCOCCCNCc1ccc(OCc2ccc(F)cc2)c(OC)c1	1.6	1.2
COc1ccc(C(=O)ON=C2CCN(C)CC2)cc1	2.9	-1.1
CC(C)(C)OC(=O)NCCc1nnc(SCC(=O)Nc2ccc(Br)cc2)o1	1.9	0.4
COc1cccc(C2CC(c3ccccc3Cl)n3nc(N)nc3N2)c1 (stereo not drawn)	0.74	-0.43
Cc1cc(N/N=C/c2ccc([N+](=O)[O-])o2)nc2ccccc12	0.69	1.8
Cc1ccc(S(=O)(=O)NC(=O)NCCc2ccccc2)cc1	3.2	0.73
COc1cc(-c2nnc(SCC(=O)c3ccc(C)cc3)o2)cc(OC)c1OC	0.29	-0.58
CCCCCN1C(=O)/C(=C/c2c(N3CCc4ccccc4C3)nc3ccccn3c2=O)SC1=S	1	-1.4
COc1ccc(-c2nc(C#N)c(NCC3CCCO3)o2)cc1OC (stereo not drawn)	1.5	-0.8
COc1ccc(OC)c(C(=O)c2coc3ccc(OCC(=O)O)cc23)c1	1.8	0.05
CC(C)N(Cc1ccccc1)C(=S)NCCN1CCOCC1	0.31	-1.1
CCn1cc(C(=O)O)c(=O)c2cc(F)c(N3CCN(C(=S)Nc4ccccc4OC)CC3)cc21	0.25	-0.01
CCC(NC(=O)Nc1nccs1)(C(F)(F)F)C(F)(F)F	1.6	-0.25
CCn1cc([C@@H]2C[C@H]3CN(Cc4cccc(Cl)c4)C(=O)[C@]34CCCN24)cn1	0.07	-0.49
CCOc1ccc(NC(=O)CN(c2ccc(OC)c(OC)c2)S(=O)(=O)c2ccc(C)cc2)cc1	0.15	0.45
CC1(NC(=O)NCc2ccco2)CCS(=O)(=O)C1 (stereo not drawn)	0.61	-0.1
COc1ccc(OC)c(C(=O)NC(CC(N)=O)c2ccc(N3CCN(c4ccc(F)cc4)CC3)c([N+](=O)[O-])c2)c1 (stereo not drawn)	0.71	-1.1
O=C(CCNC(=O)c1ccccc1Cl)Nc1ccc(Cl)c(C(F)(F)F)c1	0.53	-0.74
CC(=O)N1C(C)(C)CC(=NOC(=O)c2ccccc2)CC1(C)C	1.3	-0.41
CCOc1ccc(NN=C(C(=O)OC)C(=O)OC)c([N+](=O)[O-])c1	0.02	-1.1
CCc1n[nH]c(=S)n1/N=C/c1ccc(-c2ccc(Br)cc2)o1	0.56	0.82
Cc1ccc(NC(=O)Cn2cccc2)c(Br)c1	1.1	1.2
COc1ccccc1-n1c(-c2ccc(Cl)cc2)c[nH]c1=S	0.08	-1.3
O=C(c1ccco1)N(Cc1cccc(Cl)c1)C1CCS(=O)(=O)C1 (stereo not drawn)	1.9	-0.71
Cc1nnc(NC(=O)C2CSC3(C)CCC(=O)N23)s1 (stereo not drawn)	0.71	-1.5
CC(=O)c1cccc(NC(=O)c2cc(=O)[nH]c3ccccc23)c1	0.1	0.36
O=C(CSc1nnc(-c2ccccc2Br)o1)N1CCc2ccccc2C1	0.88	-0.91
O=C(O)CCCn1cc(NC(=O)c2ccco2)cn1	0.6	0.75
Cc1cc(C)nc(NC(=O)/C=C/c2ccccc2Cl)n1	0.89	2.5
COc1cccc(CN2CCC(n3nccc3NC(=O)CCCc3ccccc3)CC2)c1	0.31	-1.1
CCOC(=O)N1CCN(C(=O)c2ccc(NS(C)(=O)=O)cc2)CC1	1.4	-0.62
COC(=O)C1C(=O)C2=C(CC1C)NC(C)=C(C(=O)OCc1ccc(OC)cc1)C2c1ccc(C)o1 (stereo not drawn)	0.01	-0.02
COc1cc(/C=C2\C(=O)N(CCC#N)N=C2C)c(Br)cc1OC(C)C	1.6	-0.55
C=CCn1c(=NC(=O)C2COc3ccccc3O2)sc2cc(S(N)(=O)=O)ccc21 (stereo not drawn)	0.19	-1.6
Cn1c(=O)oc2cc(S(=O)(=O)NCCC(=O)NC3CCCC3)ccc21	0.3	0.57
Nc1ncn([C@H]2C[C@H](O)[C@@H](CO)O2)c(=O)n1	0.22	-0.55
COc1ccc(OC)c2c1cc(C(=O)N[C@H](C(=O)N1CCC(C(=O)O)CC1)C(C)C)n2C	0.07	0.99
Cc1ccc(F)cc1NC(=O)c1cnccn1	0.27	2.1
COc1cc2ccccc2cc1C(=O)N(CCN(C)C)c1nc2c(OC)ccc(OC)c2s1	0.57	0.04

A section of the results above, as a working copy:
mol	KCNQ2 pot	KCNQ2 pot baseline
COC(=O)C1C(=O)C2=C(CC1C)NC(C)=C(C(=O)OCc1ccc(OC)cc1)C2c1ccc(C)o1 (stereo not drawn)	0.01	-0.02
COc1cc(/C=C2\C(=O)N(CCC#N)N=C2C)c(Br)cc1OC(C)C	1.6	-0.55

(list continues)
mol	KCNQ2 pot	KCNQ2 pot baseline
COCCCn1c(SCc2ccccc2)nc2cc(OC)c(OC)cc2c1=N	0.73	0.24
CCCn1c(SCC(=O)NC2CCCC2)nnc1-c1ccccn1	0.95	2.4
CCOC(=O)c1[nH]c(C)c(CC(C)C)c1C	2.4	1
CCOC(=O)Cn1nc(C)cc1NC(=O)c1ccncc1	0.91	1.4
Cc1cc(C)c(S(=O)(=O)Nc2cccc(S(=O)(=O)NC3=NCCC3)c2)c(C)c1	1.5	0.56
N/C(=N\c1nc(CSc2nnnn2-c2ccccc2)cc(=O)[nH]1)Nc1ccccc1	0.11	0.03
O=C(NCc1cccc(C(F)(F)F)c1)c1cc(Cl)ccc1Cl	2.7	-1.5
O=C(Nn1c(O)c(C=C2N=c3ccccc3=N2)sc1=S)c1ccccc1Cl	0.78	1.7
Cc1cc(-c2nnc(CCC(=O)NCc3ccc(F)c(F)c3)o2)no1	0.76	-0.07
Cc1cc(C(=O)COC(=O)c2cccnc2Cl)c(C)n1CC1CCCO1 (stereo not drawn)	0.99	-0.3
Cc1ccc(-c2nn(C)c(=O)c3ccccc23)cc1CN1CCOCC1	0.12	-1.4
CCOC(=O)Cn1cc(C(=O)c2ccco2)c2ccccc21	1.3	1.1
O=C(Nc1nc2ccccc2[nH]1)c1ccc(OC(F)F)cc1	0.27	-2.2
Cc1nn(C)cc1S(=O)(=O)N1CCN(c2cccc(Cl)c2)CC1	0.59	-1.1
CN1CCN(c2oc(-c3cccs3)nc2S(=O)(=O)c2ccccc2)CC1	0.29	-2.7
CC(=O)Nc1ccc(C2=NN(C)C(=NCc3ccccc3)SC2)cc1	1.5	-0.55
O=C(CN1C(=O)S/C(=C/c2ccc(N3CCOCC3)cc2)C1=O)N1CCOCC1	0.38	-0.16
COc1ccc(-c2cccc(NC(=O)c3cccs3)c2)nn1	1.1	0.27
CC1=CCC2C(=O)N(c3nc(C)cc(C)n3)C(=O)C2C1 (stereo not drawn)	0.17	-0.48
COc1ccc(C2/C=C\CN(Cc3ccncc3)CC(=O)N2Cc2ccc(F)cc2)cc1 (stereo not drawn)	1	0.04
CCOC(=O)C1CCN(CCC(=O)Nc2ccc(Br)cc2)CC1	1.8	0.09
CCOc1ccc(N2C(=O)c3cccnc3C2=O)cc1	0.63	-1.5
Cc1nn(-c2ccc(F)cc2)c(C)c1CN1CCN(Cc2ccccc2)C(CCO)C1 (stereo not drawn)	0.97	1.6
O=C(Cn1cc(S(=O)(=O)Cc2ccccc2F)c2ccccc21)N1CCOCC1	0.86	1.6

Entries shown so far that contain a COOH group:
mol	KCNQ2 pot	KCNQ2 pot baseline
O=C(CSc1nnc(-c2cccnc2)s1)Nc1ccc(C(=O)O)cc1	0.08	-0.13
COc1ccc(OC)c(C(=O)c2coc3ccc(OCC(=O)O)cc23)c1	1.8	0.05
CCn1cc(C(=O)O)c(=O)c2cc(F)c(N3CCN(C(=S)Nc4ccccc4OC)CC3)cc21	0.25	-0.01
O=C(O)CCCn1cc(NC(=O)c2ccco2)cn1	0.6	0.75
COc1ccc(OC)c2c1cc(C(=O)N[C@H](C(=O)N1CCC(C(=O)O)CC1)C(C)C)n2C	0.07	0.99

New compounds follow.
mol	KCNQ2 pot	KCNQ2 pot baseline
CCOC(=O)c1sc(NC(=O)CSc2ncn(-c3ccccc3)n2)nc1C	0.04	-0.04
CC(C)CCN1C(Nc2ccccc2)=NC[C@@H]1C	1.1	0
CCCNCc1cc(OC)c(OCC(=O)Nc2ccccc2)cc1Br	0.92	-0.69
O=C(c1ccc(NS(=O)(=O)c2ccccc2)cc1)N1CCN(Cc2ccc3c(c2)OCO3)CC1	0.12	0.42
CC(=O)Nc1ccc(NC(=O)CSc2n[nH]c(-c3cccs3)n2)cc1	0.11	-0.08
CC1(C)CC(=O)C2=C(C1)N(N1CCOCC1)C(N)=C(C#N)C2c1cccs1 (stereo not drawn)	1.5	-0.38
Cc1oc2ccc(OCc3ccc(Br)cc3)cc2c1C(=O)O	3.1	-0.35
c1ccc2c(CN3CCOCC3)csc2c1	0.67	3
CON=C1CCN(c2ncc(C(F)(F)F)cc2Cl)CC1	0.4	0.78
COC(=O)C/C=N/N=C1/NC(=O)/C(=C/C(=O)O)S1	0.44	0.5
CCCCNC(=O)COC(=O)c1cc(F)c(F)cc1Cl	4	-0.53
COc1ccc(C2=NOC3(CC(=O)N(c4ccc5ccccc5c4)C3=O)C2)c(OC)c1 (stereo not drawn)	0.55	-0.48
O=C(Nc1ccccc1)Nc1cc([N+](=O)[O-])ccc1F	1.6	-1.3
O=C(Cc1cccs1)Nc1cc(SCCO)cc([N+](=O)[O-])c1	1.1	-0.94
CCOC(=O)C(NC(=O)c1ccccc1)(N1CCCC1=O)C(F)(F)F (stereo not drawn)	0.1	2.1
Cc1noc(NC(=O)c2ccccc2)c1C#N	0.49	-1
O=C(Nc1ccc([N+](=O)[O-])cc1)c1ccc(S(=O)(=O)N2CCCC2)cc1	0.02	-0.06
CCn1ccnc1CN1CCN(CCC(C)C)C(CCO)C1 (stereo not drawn)	0.08	-1.3
CCCNC(=O)c1ccc2c(=O)c(O)c(-c3ccc(Cl)c([N+](=O)[O-])c3)[nH]c2c1	0.02	-2.9
CCOC(=O)c1c(C)[nH]c(C(=O)OCC(=O)N2CCCC2=O)c1C	0.79	-0.62
O=C(c1cc(S(=O)(=O)N2CCCCC2)c(Cl)cc1N1CCOCC1)N1CCOCC1	0.77	-0.04
COc1ccc(NC(=O)CC(NC(C)c2ccccc2)C(=O)O)cc1 (stereo not drawn)	0.31	1.6
COc1ccc(-c2n[nH]c3c2CN(C(=O)c2ccc(OC)c(OC)c2)CC3)cc1	0.58	-1
COc1ccc(CNc2nc(-c3ccccc3)nn2C(=O)c2ccc([N+](=O)[O-])cc2)cc1	0.48	-0.27
CN(C)c1ccc(C(CNS(=O)(=O)c2ccc([N+](=O)[O-])cc2)N2CCOCC2)cc1 (stereo not drawn)	0.08	-0.26
O=C(COc1ccc(S(=O)(=O)NC2CCCC2)cc1)N1CCCCCC1	0.03	0.2
O=S(=O)(NC(=S)NC1CCCCC1)c1ccccc1	0.56	1.1
CCC(=O)c1ccccc1OCCCCn1cncn1	0.27	0
O=C(NNC(=O)c1ccc2c(=O)n3c(nc2c1)CCC3)c1ccc(F)cc1	1.8	-0.72
CC(/C=C/c1ccccc1)=N\NC(=O)c1cc(C)[nH]n1	2.3	0
Nc1c(-c2ccccc2)cnc2ncnn12	0.25	0.71
CCc1nnc(NS(=O)(=O)c2ccc(N/C=C\C(=O)c3ccc(F)cc3)cc2)s1	0.68	-0.9
COc1ccc(Nc2oc(-c3ccc(F)cc3)nc2C#N)cc1	0.19	-0.87
CC(=O)COc1cccc2ccc(/C=C/c3ccc(Br)s3)nc12	0.77	-0.01
COc1ccc(N=Cc2ccc(CNS(=O)(=O)c3ccc(Cl)cc3)o2)cc1	1.6	-2.5
O=C(Nc1ccccc1C(=O)NCCCN1CCOCC1)c1cccc([N+](=O)[O-])c1	2	-0.08
CCN(C(=O)CSc1ccc2ccccc2c1)C1CCS(=O)(=O)C1 (stereo not drawn)	0.87	0.72
